Source: PubChem
VACV mCherry inh = inhibitors of vaccinia virus infection (mCherry reporter signal); Vaccinia virus mCherry reporter infection, fluorescence; about a quarter of the inactives have no number; Potency, µM (top dose mostly 36.5 µM), for the others: at the top dose activity change, negative = inhibition, most hits filed as inhibitors; hit rate 0.63% among 310,000; AID 720579; active = well fitted inhibition curve with a large enough effect; inconclusive = small, poorly fitted or top-dose-only effect; inactive = no such curve, though single readings can be large or run the other way; tested in A549 cells; note: nearly all actives have a fitted effect of over 35% in size; inactives centre near -10
Vaccinia Venus = vaccinia inhibition (Venus reporter). Vaccinia virus Venus reporter expression, fluorescence. Potency, µM (doses to about 36.5 µM), for inactives: at the top dose activity change, negative = inhibition, most hits filed as inhibitors. hit rate 0.46% among 330,000. AID 720580; active means well fitted inhibition curve with a large enough effect; inconclusive means small, poorly fitted or top-dose-only effect; inactive means no such curve, though single readings can be large or run the other way; tested in A549 cells; note: nearly all actives have a fitted effect of over 30% in size; inactives centre near -10
An asterisk follows results filed as active; i = inactive; ? = inconclusive; . = no result given; & = joins results of further samples; [ ] = remark or other dose. % is set by controls: 0 for no effect and ±100 for the full control effect; potency is the fitted concentration of half-maximal effect.

SMILES	VACV mCherry inh	Vaccinia Venus
CCOC(=O)N1CCC(N2C(=O)c3ccccc3C2Nc2ccc(C)cc2)CC1 (stereo not drawn)	-13%	-6%
COCCNC(=O)C1(C)CCCN(Cc2ccc(-c3ccccc3)o2)C1 (stereo not drawn)	?	-7%
Oc1c(Cl)cc(Oc2cc(Cl)c(O)c(CN3CCOCC3)c2)cc1CN1CCOCC1	?	-9%
Cc1ccccc1S(=O)(=O)N1C[C@H]2CON(C)[C@H]2C[C@H]1c1cccc(Br)c1	i	-10%
O=C(O)C/C(=C\c1cc2c(cc1Br)OCO2)c1nc2ccccc2s1	i	-14%
COc1cc(N(C)C)c(OC)cc1/C=C1\C=Cc2ccccc21	-15%	-5%
CCc1noc(-c2ccc(N(C)Cc3ccc(OC)cc3)c([N+](=O)[O-])c2)n1	-21%	-12%
CC(C)(C)C(=O)Nc1ccc(N2CCN(c3ccc(C(F)(F)F)cn3)CC2)nc1	-14%	9%
Cc1ccc(-c2nnc(SCc3ccccc3)o2)cc1	-10%[7.34 µM]	-6%[7.34 µM]
O=C(CCS(=O)(=O)c1ccccc1)N(Cc1cccnc1)c1nc2c(Cl)cccc2s1	-27%	-20%
COC(=O)CNc1cc(S(=O)(=O)N2CCCCC2)ccc1Oc1cccc(C)c1	-15%	-12%
Cc1cccc(Oc2ncc(-c3ccc(Cl)cc3)cn2)c1C	.	-25%
COc1cccc2c1cc1c(=O)n(CC(=O)N3CCN(c4cccc(C)c4)C(C)C3)nc(C)n12 (stereo not drawn)	i	-2%
Cc1ccc(C(=O)N/C(=C\c2cccc([N+](=O)[O-])c2)C(=O)Nc2cccc(C(=O)O)c2)cc1	-15%	1%
O=C(Nc1ccccc1F)c1ccc2sc([C@H]3C[C@H](O)[C@@H](CO)O3)nc2c1	-8%	7%
Cc1ccc(Sc2ncccc2C(=O)O)c(C)c1	i	-11%
COc1ccc(C(C)=O)cc1CN(c1ccccc1OC)S(=O)(=O)c1cccs1	-7%	-22%
COc1ccc(Cl)cc1S(=O)(=O)N1CCCC(C(=O)NCc2ccncc2)C1 (stereo not drawn)	i	-12%
S=C1NC[C@H](Cc2ccccc2)N1CC1CCN(CCCC2CCCC2)CC1	-21%	-20%
O=C(Nc1ccn(CCCNCCc2ccccn2)c(=O)n1)OCc1ccccc1	i	-9%
CC(C)c1noc(-c2ccccc2OCC(=O)Nc2ccccc2[N+](=O)[O-])n1	-13%	-3%
CC(C)NC(=O)c1ccc2c(c1)N(CC(=O)N1CCCC1)C(=O)C(C)(C)O2	i	-17%
Cc1cccc(C)c1NC(=O)NN1C(C)CCCC1C (stereo not drawn)	-8%	-10%
Cc1cc(C)nc(NC2=NCCN2C(=S)Nc2ccc(C)c(C)c2)n1	i	-3%
COc1ccc([N+](=O)[O-])cc1NC(=O)CCC(=O)c1cccs1	2%	-11%
SMILES	VACV mCherry inh	Vaccinia Venus
CCC12CN3CC(C)(CN(C1)C3c1ccccc1C)C2=O (stereo not drawn)	-7%	-11%
NC(=O)CC(NC(=O)Cc1cccc2ccccc12)c1ccc(N2CCC(Br)CC2)c([N+](=O)[O-])c1 (stereo not drawn)	-3%	?
Cc1cn(CC(=O)N[C@H](CO)Cc2c[nH]c3ccccc23)c(=O)[nH]c1=O	-10%	-9%
Cc1c(C(=O)N2CCOCC2)sc(NC(=O)CCl)c1C#N	-5%	9%
COc1ccc(/C=N/NC(=O)c2cc(-c3cccn3C)n[nH]2)cc1OC	?	-20%
N[C@H](C(=O)O)C1C(C(=O)O)C1C(=O)O (stereo partly drawn)	-11%	-14%
CC(=NNC(=S)N1CCN(c2ccccn2)CC1)c1nccs1	2.8µM*	?
Cc1cccc(NC(=O)CCCN2C(=S)NC(C)(C)CC2C)c1C (stereo not drawn)	-4%	-2%
COc1cccc(OC)c1CNC(=O)C1CCC(=O)N(CC2CCCCC2)C1 (stereo not drawn)	-11%	0%
Cn1ncc(Cl)c1C(=O)Nc1ccc(Cl)cn1	-5%	-11%
Cc1ccc(-n2nc(-c3ccc(OC(F)(F)F)cc3)cc2N)cc1C	-12%	-7%
O=[N+]([O-])c1ccc(-c2csc(NN=C3CCCC3)n2)cc1	-19%	-5%
O=S(=O)(c1ccc(Cl)s1)N1CCC2(CC1)OCCO2	i	-12%
CC(C)(C)[C@H]1C=C(C(=O)NCc2nc3ccccc3[nH]2)O[C@@H](OCc2ccc(CO)cc2)C1	0%	?
COCCOc1ccc(C(F)(F)F)cc1NC(=O)COC(=O)c1cc[n+]([O-])cc1	0%	7%
Cc1ccc(-c2cc([C@H]3[C@H]4C=CC[C@@H](C)[C@@H]4C(=O)N3Cc3ccccc3)ccc2F)cc1	-14%	-12%
COc1cccc(NC(=O)CN(C)C(=O)c2ccc(Cl)c(S(=O)(=O)N3CCCCCC3)c2)c1	i	-5%
CCOC(=O)c1cc(C)sc1/N=C/C1C(=O)CCCC1=O	-5%	-14%
Cc1ccc(/C=N/N2CCN(c3ccncc3S(=O)(=O)N3CCCCC3)CC2)cc1	.	4%
O=C1NC(=O)C(CCc2ccccc2)(c2ccccc2)N1 (stereo not drawn)	i	3%
Cc1nc(SCC(=O)c2cc3ccccc3oc2=O)c(C#N)c(-c2cccs2)c1C(=O)Nc1ccccc1	i	-8%
COc1ccc(C(C)(O)c2nc(-c3ccc(S(C)(=O)=O)cc3)cs2)cc1 (stereo not drawn)	-20%	-10%
CCN(CC)S(=O)(=O)c1ccc(/C=C/C(=O)OCC(=O)NCc2ccc3c(c2)OCO3)cc1	0%	-9%
CC(=O)c1ccc(NC(=O)COC(=O)C2C3CC4OC(=O)C2C4C3)cc1 (stereo not drawn)	5%	-12%
COc1ccc(CN2C(CC(=O)Nc3cccnc3)c3ccc(C(F)(F)F)cc3S2(=O)=O)cc1 (stereo not drawn)	18%	-4%

For reference, 22 of the compounds above.
SMILES	VACV mCherry inh	Vaccinia Venus
CCC12CN3CC(C)(CN(C1)C3c1ccccc1C)C2=O (stereo not drawn)	-7%	-11%
NC(=O)CC(NC(=O)Cc1cccc2ccccc12)c1ccc(N2CCC(Br)CC2)c([N+](=O)[O-])c1 (stereo not drawn)	-3%	?
Cc1cn(CC(=O)N[C@H](CO)Cc2c[nH]c3ccccc23)c(=O)[nH]c1=O	-10%	-9%
Cc1c(C(=O)N2CCOCC2)sc(NC(=O)CCl)c1C#N	-5%	9%
COc1ccc(/C=N/NC(=O)c2cc(-c3cccn3C)n[nH]2)cc1OC	?	-20%
N[C@H](C(=O)O)C1C(C(=O)O)C1C(=O)O (stereo partly drawn)	-11%	-14%
CC(=NNC(=S)N1CCN(c2ccccn2)CC1)c1nccs1	2.8µM*	?
Cc1cccc(NC(=O)CCCN2C(=S)NC(C)(C)CC2C)c1C (stereo not drawn)	-4%	-2%
COc1cccc(OC)c1CNC(=O)C1CCC(=O)N(CC2CCCCC2)C1 (stereo not drawn)	-11%	0%
Cn1ncc(Cl)c1C(=O)Nc1ccc(Cl)cn1	-5%	-11%
Cc1ccc(-n2nc(-c3ccc(OC(F)(F)F)cc3)cc2N)cc1C	-12%	-7%
O=[N+]([O-])c1ccc(-c2csc(NN=C3CCCC3)n2)cc1	-19%	-5%
O=S(=O)(c1ccc(Cl)s1)N1CCC2(CC1)OCCO2	i	-12%
CC(C)(C)[C@H]1C=C(C(=O)NCc2nc3ccccc3[nH]2)O[C@@H](OCc2ccc(CO)cc2)C1	0%	?
COCCOc1ccc(C(F)(F)F)cc1NC(=O)COC(=O)c1cc[n+]([O-])cc1	0%	7%
Cc1ccc(-c2cc([C@H]3[C@H]4C=CC[C@@H](C)[C@@H]4C(=O)N3Cc3ccccc3)ccc2F)cc1	-14%	-12%
COc1cccc(NC(=O)CN(C)C(=O)c2ccc(Cl)c(S(=O)(=O)N3CCCCCC3)c2)c1	i	-5%
CCOC(=O)c1cc(C)sc1/N=C/C1C(=O)CCCC1=O	-5%	-14%
Cc1ccc(/C=N/N2CCN(c3ccncc3S(=O)(=O)N3CCCCC3)CC2)cc1	.	4%
O=C1NC(=O)C(CCc2ccccc2)(c2ccccc2)N1 (stereo not drawn)	i	3%
Cc1nc(SCC(=O)c2cc3ccccc3oc2=O)c(C#N)c(-c2cccs2)c1C(=O)Nc1ccccc1	i	-8%
COc1ccc(C(C)(O)c2nc(-c3ccc(S(C)(=O)=O)cc3)cs2)cc1 (stereo not drawn)	-20%	-10%

Next results.
SMILES	VACV mCherry inh	Vaccinia Venus
Cc1cc(C)nc(Sc2ccc(/C=C(\C#N)C(N)=O)o2)n1	23%	55%[activator]
O=c1sc2ccccc2n1Cc1ccccc1	i	-9%
Cc1cccc(NC(=O)NNC(=O)COc2ccc([N+](=O)[O-])cc2)c1C	i	-4%
Cc1ccnc(NC(=O)CCNC(=O)c2ccccc2Cl)c1	-14%	-9%
COC(=O)c1sccc1NC(=O)Nc1ccc(F)cc1F	-21%	-14%
COc1ccc(CNC(=O)CN2C(=O)COc3ccc(S(=O)(=O)NC4CCCC4)cc32)cc1	-14%&-16%	-10%&-14%
c1ccc2c(c1)c1ccccc1n2CN1CCOCC1	.	?
Cn1c(C(=O)NC2CCCCC2)cc2c(=O)n(C)c3ccccc3c21	i	?
COc1nc(NC(C)C)nc(NC(C)C)n1	0%	0%&-12%
O=C(Nc1ccc(Cl)cc1)c1ccc2sc([C@@H]3O[C@H](CO)[C@H](O)[C@H](O)[C@H]3O)nc2c1	17%	0%
Cc1cc(C)c(C)c(S(=O)(=O)N2CCN(CC(=O)Nc3sccc3C#N)CC2)c1C	21%	-17%
C[C@@]12CCC3[C@@](CCC4[C@@]3(C)CCC[C@@]4(C)C(=O)NCc3ccccc3)(CC1=O)C2 (stereo partly drawn)	i	-18%
c1ccc(CSc2ncn[nH]2)nc1	-2%	3%
FC(F)(F)c1nnc2ccc(NCn3nnc4ccccc43)nn12	-1%	-11%
CCCCC(CC(O)COCCC)C(=O)NN (stereo not drawn)	-12%	16%
CCc1cccc(CC)c1NC(=O)Cn1c(-c2ccccc2Cl)nc2ccccc21	-6%	0%
CC1(C)Oc2ccc(C(=O)Nc3ccccc3)cc2N(CC#N)C1=O	i	0%
O=C(CNc1ccccc1)N/N=C/c1c[nH]c2ccccc12	-27%	?
CC(C)N(C(=NCc1ccccc1)NC(=O)c1ccccc1)C(C)C	i	-13%
CCCCC#Cc1ccccc1CC(=O)Nc1ccccc1	?	-12%
COc1ccccc1NCC(=O)N/N=C(\C)c1cccs1	-55%	-3%
CCOc1ccccc1NC(=O)c1cccc2c1C(=O)N(C1CCCCC1)C2	-1%&-18%	-8%&-9%
FC(F)(F)Oc1ccc(NC(=S)Nc2ccccc2N2CCOCC2)cc1	-5%	-5%
Cn1c(SCC(=O)Nc2ccc(N3CCOCC3)c(Cl)c2)nnc1-c1ccccc1	i	-12%
CC1=CC(=O)C(C(C)C)=CC1=NC(=O)c1ccc(C)cc1	-17%	-23%
SMILES	VACV mCherry inh	Vaccinia Venus
COc1cc(C(=O)NCc2nc3cccnc3n2Cc2ccc(C)cc2)cc(OC)c1OC	-3%	0%
O=C(Oc1ccc(-c2nccc(-c3ccccn3)n2)cc1)c1cccc(C(F)(F)F)c1	.	7%
CS(=O)(=O)Nc1ccccc1-c1cccc2nccn12	29%	-10%
O=C(CN1C(=O)NC2(CCc3ccccc32)C1=O)c1ccc(Cl)cc1 (stereo not drawn)	-1%	0%
Nc1c(Cl)c(Cl)nc(C(=O)OCC(=O)NC2CCCCC2)c1Cl	-12%	-15%
CC(O)[C@H]1CNC(=O)C(=O)N1CCc1cccc(F)c1 (stereo partly drawn)	i	-10%
CC1CN1P1(=O)OCC(C)([N+](=O)[O-])CO1 (stereo not drawn)	-6%	-11%
CCOc1ccc(NC(=O)CSc2nc3c(oc4ccccc43)c(=O)n2-c2ccccc2C)cc1	-21%	-14%
CN1CCN(C(=O)C2=C[C@@H](C3CCCCC3)C[C@@H](OCc3ccc(CO)cc3)O2)CC1	?	-10%
CCN1C(=O)c2cccc3c(S(=O)(=O)N4CCCC4C(=O)O)ccc1c23 (stereo not drawn)	i	-4%
CCN1C(=O)[C@H]2[C@@H](c3ccc(C)cc3)N3C(=O)N(c4ccc(C)cc4)C(=O)[C@@]3(Cc3ccc(Cl)cc3)[C@H]2C1=O	i	-18%
C/C(=N\N1CCCCCC1)c1c(O)n(-c2ccc(C)cc2)c(=O)[nH]c1=O	i	-27%
CCOc1ccccc1N(CC(=O)Nc1ccc(S(=O)(=O)N2CCOCC2)cc1)S(C)(=O)=O	9%	2%
CCc1ccc(C2CC(=O)N3CN(c4ccccc4)CSC3=C2C#N)cc1 (stereo not drawn)	?	-13%
O=C(c1cccs1)N1CCCc2cc(NS(=O)(=O)c3ccc(Br)cc3)ccc21	-12%	-25%
CCOC(=O)c1ccc(NC(=O)C2(c3ccccc3)CCOCC2)cc1	.	-15%
CCOC(=O)c1nn(-c2ccccc2F)c2nc(-c3ccco3)c(C#N)c(=O)n12	-4%	0%
Clc1ncccc1-c1nnn(-c2ccccc2Br)n1	-7%	-16%
Nc1c2c(nc3cccc(Cl)c13)N(c1ccccc1)CC2	-23%	7%
CCC(CC)NC(=O)Cc1ccccc1[N+](=O)[O-]	.	-2%
CCCCCCN=C(C)c1ccccc1O	i[7.34 µM]	10%[7.34 µM]
O=C(CCC1CCCN(C(=O)c2cncs2)C1)NCc1ccc(F)c(F)c1 (stereo not drawn)	2%	-5%
O=C(NCCc1ccccc1)c1ccc2c(c1)N(Cc1ccc(F)cc1)C(=O)c1ccccc1S2(=O)=O	-29%	-26%
Cc1cnc2ccccc2c1/C=C/c1ccc(N(C)C)cc1	-26%	-19%
COc1ccc(-c2cc(-c3ccc(F)cc3)nc3c2COc2ccc(F)cc2-3)cc1	5%	4%
Cc1ccc(S(=O)(=O)N/N=C/c2ccc(OCC(=O)NC(C)C)cc2)cc1	.	1%
